Source: PubChem BioAssay
eIF4H FP inh: human eIF4H binding inhibitors, primary screen, translation initiation inhibitor project, biochemical, uHTS, fluorescence polarization. Eukaryotic translation initiation factor 4H (Homo sapiens), Q15056. eIF4H fluorescence polarization binding assay. inhibition, % at 35 µM. 290,000 tested, 0.94% active;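 active = 50% or more with normal probe brightness, or confirmed in later tests; about a fifth of its hits are not listed in these tables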;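 note: calls also rest on retests at 20 µM and on dose response follow-up; 0% = protein and probe with vehicle and 100% = probe without protein; strong numbers were not always called active; many hits fall short of the cut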
Rce1 inhib: yeast Rce1p protease inhibitors, primary screen, biochemical, fluorescence, cell-free homogeneous | CAAX prenyl protease 2 (Saccharomyces cerevisiae (strain ATCC 204508 / S288c)), Q03530 | yeast membranes, quenched prenylated peptide cleavage fluorescence | calls only | 290,000 tested, 0.27% active;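 active = fall in fluorescence gain of 50% or more versus controls, with final raw signal at or below 3038400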;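 note: plate controls were neutral control wells for no effect and wells lacking membranes for full effect; tested at 10 µM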
CSC inhib: cancer stem cell viability inhibitors, primary screen, luminescence; cancer stem cell-like cells viability; inhibition, % at 7.5 µM; 300,000 tested, 1.1% active;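 active = mean at 75% or more and at least half the replicates too; tested in HMLE shEcad cells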;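 note: 0% = median of negative and 100% = median of positive control wells; the first replicate is given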
PABP polyA inh: PABP poly(A) RNA binding inhibitors, primary screen, biochemical, fluorescence polarization, uHTS | Polyadenylate-binding protein 1 (Homo sapiens), P11940 | inhibition, % at 35 µM | 290,000 tested, 1% active;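 active = 50% or more with normal probe brightness, or confirmed in later tests; about a fifth of its hits are not listed in these tables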;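 note: calls also rest on retests at 20 µM and on dose response follow-up; controls were probe without protein and protein plus probe with vehicle; some compounds called inactive have numbers as strong as hits; many hits fall short of the cut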
Target sequence (P11940 whole entry, looked up): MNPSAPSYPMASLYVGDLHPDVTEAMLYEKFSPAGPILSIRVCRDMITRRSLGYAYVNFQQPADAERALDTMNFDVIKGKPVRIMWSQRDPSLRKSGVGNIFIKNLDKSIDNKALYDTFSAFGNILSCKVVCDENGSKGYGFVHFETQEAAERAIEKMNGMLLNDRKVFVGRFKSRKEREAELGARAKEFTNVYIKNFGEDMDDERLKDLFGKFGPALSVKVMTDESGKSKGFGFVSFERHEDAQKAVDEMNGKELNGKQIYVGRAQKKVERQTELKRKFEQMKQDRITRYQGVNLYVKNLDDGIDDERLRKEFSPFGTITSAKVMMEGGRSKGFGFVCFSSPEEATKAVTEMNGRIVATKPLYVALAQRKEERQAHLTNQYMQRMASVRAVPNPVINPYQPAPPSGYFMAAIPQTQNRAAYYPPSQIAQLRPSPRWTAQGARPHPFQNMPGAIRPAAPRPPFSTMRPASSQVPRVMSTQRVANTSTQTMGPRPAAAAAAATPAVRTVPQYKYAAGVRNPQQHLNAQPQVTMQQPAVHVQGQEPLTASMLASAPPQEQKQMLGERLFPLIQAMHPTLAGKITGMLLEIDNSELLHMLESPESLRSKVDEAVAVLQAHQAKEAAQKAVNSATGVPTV
Yeast UUG start: modulators of yeast start codon fidelity, primary screen, whole organism, S. cerevisiae, single point, plate reader | activity score, % at 18.7 µM | S. cerevisiae UUG-firefly luciferase reporter, luminescence/redox ratio | 350,000 tested, 0.13% active;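 active = replicate mean at a twofold rise or more, about +100% in these data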;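 note: firefly luciferase made from a UUG start codon reports start codon fidelity; reporter light over untreated wells divided by growth signal over untreated wells; some hits fall short of that in this replicate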
Env fusion inh: inhibitors of HIV-1 Env-driven cell-cell fusion, primary screen, HeLa-JRFL effector, CEM21 target cells, luciferase; 360,000 tested, 1.1% active; inhibition, % at 12.3 µM; AID 651610, 2012;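 active = mean replicate inhibition score of at least 50 and every replicate individually at or above 50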;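 note: 0% = plate neutral controls and 100% = maraviroc near 300 nM; one replicate is shown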
MT1-MMP act inh: blockers of MT1-MMP proenzyme processing, primary screen, HT1080 RFP-PRO-GFP cells, GFP/RFP fluorescence | GFP/RFP ratio fluorescence, overnight; percent of plate control window, DMSO zero | 360,000 tested, 0.061% active | GFP/RFP ratio change, % at 20 µM | AID 651647, 2012;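 active = GFP/RFP ratio change of at least 30% with cell ATP level not reduced by more than half and red fluorescence within 50% of control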; note: strong numbers were not always called active
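Compound: 20 µM single dose, 1% DMSO / System: HT1080 RFP-PRO-GFP cells / Controls: DMSO and RFP-L50D-GFP cell wells / Read-out basis: GFP/RFP fluorescence ratio / Schedule: overnight compound exposure at 37 °C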
MT1-MMP act inh RFP: further read-out of MT1-MMP act inh, marked with its call; RFP signal change, %; measured here: RFP expression control read;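 0 = vehicle wells; hits needed this value within 50% of zero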
An asterisk follows results filed as active; i = inactive; x = not tested or not shown; & = joins results of further samples; [ ] = another dose, or the depositor's remark.

SMILES | eIF4H FP inh | Rce1 inhib | CSC inhib | PABP polyA inh | Yeast UUG start | Env fusion inh | MT1-MMP act inh | MT1-MMP act inh RFP
CN(C)CCNC(NC(=O)c1cccs1)C(Cl)(Cl)Cl (stereo not drawn) | -8 | i | 0 | -1 | -12 | 7 | 1 | 1
CCN(CC(=O)Nc1ccccc1C(F)(F)F)C(=O)c1ccccc1Sc1ccccc1C#N | x | x | -5 | x | -8 | x | -3 | -3
CC1Cc2ccccc2N1CC(=O)Nc1ccc(S(=O)(=O)N(C)C)cc1 (stereo not drawn) | -1 | i | 3 | 17 | x | -4 | 2 | 5
COc1ccc(N2CCN(C3CCCN(Cc4cccc(OC)c4)C3)CC2)cc1 (stereo not drawn) | 0 | i | 4 | 2 | -8 | -11 | 5 | 5
COc1ccc(COc2ncnc3ccc(Br)cc23)cc1F | 5 | i | -4 | 1 | -9 | -24 | 5 | 3
Cc1ccnc2nc(C(=O)OCC(=O)NC3CCCC(C)C3C)nn12 (stereo not drawn) | x | x | -5 | x | -2 | x | -1 | 0
Cc1ccc(CN=c2c([N+](=O)[O-])nn(-c3ccc(Cl)cc3)n2O)cc1 | -2 | i | 1 | 12 | 12 | -16 | 2 | 1
O=C(COc1ncnc2ccccc12)NCc1ccco1 | 3 | i | -6 | 4 | -9 | -9 | 0 | 3
O=C(c1ccc(Cl)cc1)N1CCN(CCOc2ccccc2)CC1 | 7 | i | 0 | -7 | -4 | -8 | 3 | -9
O=C(Cn1cnc([N+](=O)[O-])c1)Nc1ccc(F)c(Cl)c1 | -4 | i | x | 2 | -26 | -3 | -4 | -2
CCOC(=O)N1CCN(C(=O)/C=C/c2ccc(OC)cc2)CC1 | -11 | x | -5 | 8 | -9 | 2 | 2 | 2
COc1cc(/C=C(\NC(=O)c2ccccc2)C(=O)N2CC3CC(C2)c2cccc(=O)n2C3)cc(OC)c1OC (stereo not drawn) | 5 | i | -14 | 1 | 28 | 8 | -8 | -2
COc1cccc(-c2nc3ccccc3s2)c1O | 0 | x | 1 | 3 | -22 | -290 | 1 | 0
O=C(CN1C(=O)CCSc2ccc(S(=O)(=O)N3CCCC3)cc21)NCc1ccccc1Cl | 0 | i | -4 | -5 | -19 | -10 | 0 | 0
Cc1cc(Cl)c2ccccc2n1 | -8 | i | -12 | 0 | x | 11 | 8 | 10
CCOc1cccc(/C=N/NC(=S)Nc2cc(S(=O)(=O)N3CCOCC3)ccc2N2CCOCC2)c1O | 3 | i | -6 | -8 | x | 26 | -14 | -13
CCOc1cc(C2C(C(=O)OC)=CN(C3CCCC3)C=C2C(=O)OC)cc(Br)c1O | 17 | i | -2 | 8 | -30 | x | -2 | 1
C[C@H](CO)N1C[C@H](C)[C@@H](CN(C)Cc2ccc(C(=O)O)cc2)Oc2ncc(-c3ccc(C(=O)N(C)C)cc3)cc2C1=O | x | x | x | x | -9&-10&-7 | 11&21[16.7 µM] | 4 | 2
Cc1c(/C=C2\NC(=O)NC2=O)c2ccccc2n1C | 6 | i | -5 | 3 | -13 | -1 | 3 | 1
Cc1csc(CNc2ncnc3ccc(-c4cccc(Cl)c4)cc23)c1 | x | x | x | x | -11 | 37 | 9 | -1
COC(=O)c1ccc(Cn2c(C)cc(C)[n+]2C)o1 | -2 | i | 5 | 49 | -10 | 5 | 0 | 5
CNc1ccc(S(=O)(=O)NCC(=O)OCC(=O)Nc2cccc(Cl)c2Cl)cc1[N+](=O)[O-] | 15 | i | 2 | -7 | -13 | -1 | 3 | 3
COc1ccc(C(=O)C(C)Sc2nnc(C3CC3)n2C2CC2)cc1 (stereo not drawn) | x | x | -2 | x | -10 | -1 | -1 | 1
O=C(NCc1cccnc1)C(=O)Nc1nccs1 | 0 | i | -18 | 16 | x | x | x | x
O=C(COC(=O)c1cccc(S(=O)(=O)N2CCc3ccccc32)c1)NC1CCS(=O)(=O)C1 (stereo not drawn) | -18 | i | -21 | -2 | x | x | 4 | 1
N#C/C(=C\c1ccc[nH]1)S(=O)(=O)c1ccccc1 | 2 | i | -2 | 3 | 5 | x | 10 | -2
Cc1ccc(C2NC(=S)NC3=C2N2CCC3CC2)cc1 (stereo not drawn) | -5 | i | -7 | 1 | -18 | x | 3 | 3
CCN(CC(=O)Nc1ccc(NC(C)=O)cc1)C(=O)COc1ccc2ccccc2c1 | x | i | x | x | x | -3 | 4 | 2
Cc1sc(NC(=O)CCCC(=O)O)c(C#N)c1C | 11 | i | -5 | 4 | -21 | 10 | -4 | 3
CC(C)CCOc1ccc(C(=O)NCC(c2ccco2)N(C)C)cc1 (stereo not drawn) | 2 | i | 27 | 11 | -20 | 2 | 1 | 4
N#CC1=C(O)C(c2ccccc2)n2c1nc(=O)c1ccccc12 (stereo not drawn) | 10 | i | -11 | 14 | x | x | -2 | 3
O=C(COC(=O)c1cccc(F)c1)NCCC1=CCCCC1 | x | x | -18 | x | -17 | 0 | 1 | 2
O=C(Cc1cccc2ccccc12)Nc1nc(-c2cccc([N+](=O)[O-])c2)cs1 | -5 | i | 6 | -4 | x | 8 | -6 | -9
O=C(CSc1ccccc1F)NC(=O)NC1CCCC1 | x | x | x | x | -11 | -23 | 2 | 6
CC(C)(C)c1ccc(C(=O)NNC(=O)CCC(=O)Nc2ccccc2)cc1 | -8 | x | -1 | -9 | -3 | 10 | -4 | 5
Cc1ccc(OCC(=O)NCCNC(=O)c2ccccn2)cc1 | -8 | i | x | 2 | -1 | 5 | 0 | 0
O=C(N1CCCCCC1)N1CCN(C(=O)N2CCCCC2)CC1 | 6 | i | -15 | 9 | -5 | x | 4 | 1
O=C(Nc1nnc(CCc2ccccc2)s1)c1cccs1 | -14 | i | x | -1 | -16 | x | 6 | 4
CCOC(=O)C1=CCN(S(=O)(=O)c2ccccc2C)C1c1ccc(Cl)cc1 (stereo not drawn) | x | x | x | x | -9 | 12 | 0 | -4
CCOC(=O)c1cc2c(N)c(C(=O)c3ccc(Br)cc3)sc2[nH]c1=O | 13 | i | 10 | 11 | x | 2 | -3 | 2

Rewritten in markdown: part of the list above.
| canonical_smiles | eIF4H FP inh | Rce1 inhib | CSC inhib | PABP polyA inh | Yeast UUG start | Env fusion inh | MT1-MMP act inh | MT1-MMP act inh RFP |
| --- | --- | --- | --- | --- | --- | --- | --- | --- |
| CC(C)(C)c1ccc(C(=O)NNC(=O)CCC(=O)Nc2ccccc2)cc1 | -8 | x | -1 | -9 | -3 | 10 | -4 | 5 |
| Cc1ccc(OCC(=O)NCCNC(=O)c2ccccn2)cc1 | -8 | i | x | 2 | -1 | 5 | 0 | 0 |
| O=C(N1CCCCCC1)N1CCN(C(=O)N2CCCCC2)CC1 | 6 | i | -15 | 9 | -5 | x | 4 | 1 |
| O=C(Nc1nnc(CCc2ccccc2)s1)c1cccs1 | -14 | i | x | -1 | -16 | x | 6 | 4 |
| CCOC(=O)C1=CCN(S(=O)(=O)c2ccccc2C)C1c1ccc(Cl)cc1 (stereo not drawn) | x | x | x | x | -9 | 12 | 0 | -4 |

Continuation:
SMILES | eIF4H FP inh | Rce1 inhib | CSC inhib | PABP polyA inh | Yeast UUG start | Env fusion inh | MT1-MMP act inh | MT1-MMP act inh RFP
CCc1nnc(NC(=O)C2CC(=O)N(c3ccc(C)cc3)C2)s1 (stereo not drawn) | 11 | i | -11 | 5 | -16 | -79 | -3 | 1
Fc1ccc(CCNC(=S)Nc2ccc(F)c(Cl)c2)cc1 | 4 | i | 46 | 2 | x | -8 | 7 | -3
c1ccc2c(c1)CCN(c1ncnc3nc[nH]c13)C2 | 2 | i | -9 | -1 | 3 | 9 | -3 | -1
Cc1cc(C)cc(NC(=O)Cn2nnc(C(=O)NCc3cccs3)c2N)c1 | 1 | i | -3 | 1 | x | -3 | -1 | -4
O=C(Cc1ccc(Cl)cc1)NCCN1CCCC1 | -1 | i | 8 | -4 | -26 | -4 | 7 | 3
O=C(CSc1nnc(Cc2cccs2)n1Cc1ccco1)Nc1ccc(Cl)cc1Cl | 6 | i | 5 | 10 | -8 | 59* | -8 | -14
S=C(NCCc1ccc(Cl)cc1)Nc1ccc(Cl)cc1Cl | -4 | i | 44 | -4 | x | 3 | 0 | -7
CCNCc1cc(Cl)cc(OC)c1OC(C)C | 1 | i | 7 | -6 | x | x | -7 | -1
O=C(O)c1ccc2c(=O)n3c(nc2c1)/C(=C/c1ccccc1Br)CC3 | 6 | i | -19 | 19 | -9 | -8 | 1 | 1
O=C(CSCc1ccc(Cl)cc1)NCc1ccc2c(c1)OCO2 | -16 | x | -18 | -3 | -7 | -3 | -2 | -1
Nn1cnnc1SCC(=O)Nc1ccc2c(c1)OCCO2 | -1 | i | -31 | -1 | -27 | -8 | 0 | 3
COC(=O)[C@H](CCSC)NS(=O)(=O)c1ccccc1Br | 7 | i | -2 | 7 | -21 | 5 | 1 | 4
O=C(NCc1cccs1)C1CCN(c2nccs2)CC1 | 1 | i | -16 | 1 | -21 | x | -2 | 2
CN(Cc1ccccc1)c1nc2c(c(=O)[nH]c(=O)n2C)n1Cc1ccccc1F | -12 | i | -20 | 10 | -5 | 11 | -2 | -3
Cc1nn(CC(=O)Nc2ccc3c(c2)nc2n3CCOC2)c(=O)c2ccccc12 | -4 | i | -13 | 0 | -16 | -34 | 0 | 2
CCOC(=O)c1sc(=S)n(CC)c1NC(=O)C1CC1 | 6 | i | -21 | -5 | -13 | x | 0 | -1
O=c1c2ccccc2c(C=Nc2ccc(S(=O)(=O)Nc3ncccn3)cc2)c(O)n1-c1cccc(Cl)c1 | 4 | i | 6 | -5 | x | 14 | x | x
CCCN(CCC)CC(O)COc1ccccc1C(=O)Nc1ccccc1 (stereo not drawn) | -1 | i | -5 | 5 | x | 22 | 2 | 4
Cc1cc(C)cc(NC(=O)CSc2ccc(-c3ccccn3)nn2)c1 | -11 | i | 96* | 4 | -22 | -203 | 2 | -5
Cc1ccccc1N1CCN(CC(=O)Nc2ccccc2C(=O)NC2CC2)CC1 | x | x | -10 | x | -5 | x | 0 | -7
CCN1CCN(c2ccc(S(=O)(=O)N3CCOCC3)cc2NC(=O)c2ccc(F)cc2Cl)CC1 | x | i | -1 | x | -12 | -11 | -4 | 1
O=C(NNC(=O)c1cnccc1C(F)(F)F)c1ccc(Cl)cc1 | -13 | i | -1 | -10 | -7 | 0 | 0 | 3
CC/C(=N\NC(=O)c1nnn(-c2nonc2N)c1CN(C)c1ccccc1)c1ccccc1 | 14 | i | 27 | 8 | -21 | -7 | 4 | 2
CN(CC(=O)Nc1ccc(F)cc1)C(=O)COC(=O)/C=C/c1cccs1 | x | i | -5 | x | -14 | -2 | -1 | -1
CCOC(=O)Nc1ccc2c(c1)nc(CN1CCOCC1)n2C | 2 | i | -12 | -2 | -10 | x | 4 | 3
Cc1ccc(CN2C(=O)CCC2C(=O)NCCCN2CCC(C)CC2)cc1 (stereo not drawn) | 0 | i | x | -3 | x | x | 6 | 6
Cc1cc(C)cc(C(=O)NCC(=O)OCc2cc([N+](=O)[O-])cc3c2OCOC3)c1 | 10 | i | -8 | 6 | 11 | 20 | 0 | 4
Cc1ccc(NC(=O)C2C3C=CC4(O3)C2C(=O)N(CCCN2CCCC(C)C2)C4C(=O)NC2CCCCC2)cc1 (stereo not drawn) | -14 | i | -7 | 1 | -5 | 7 | 1 | 4
COc1cccc(C2=NOC(C(=O)NCc3cccnc3)C2)c1 (stereo not drawn) | -8 | i | -17 | 6 | -14 | 8 | -1 | 3

An excerpt; rates above refer to the full screens.
